Bioassay records as filed in PubChem.
Mtb growth: M. tuberculosis H37Rv growth inhibitors, H37Rv strain (AID 1626) | M. tuberculosis H37Rv growth inhibition; higher % means a stronger effect | inhibition, % at 10 µM, or IC50 in µM where a hit was titrated | 220,000 compounds, 0.95% hits;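 active = confirmed in a dose series; inconclusive = inhibition above 80% but not taken into the dose series; inactive = below 80% or under 30% at every dose of the series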;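 also: bacteria incubated seven days before Alamar blue readout; 0% = bacteria only wells and 100% = bacteria with antibiotic wells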
Mtb bLac sens: beta-lactam sensitization of Mtb H37Rv; AID 434955; 330,000 compounds, 0.27% hits; M. tuberculosis H37Rv growth with meropenem, percent inhibition; hits of this screen are not shown here; inhibition, % at 25 µM;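 active = about 74% or more and at least 40 points above the plate without the antibiotic, then above 30% in a dose series; inconclusive = first-round hits that could not be retested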;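 also: growth measured after seven days incubation then overnight dye step; 0% = bacteria only wells and 100% = bacteria with antibiotic; twin plates without the antibiotic show which effects depend on it; some results filed as inactive read as strong as hits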
RecA intein inh: inhibitors of M. tuberculosis RecA intein splicing | cell-free RecA intein splicing, fluorescence | 290,000 compounds, 0.75% hits | P9WHJ3 | AID 2221 | inhibition, %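 (about 9 µM by stock and volumes)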; in the data active = inhibition above about 30%; inconclusive = no clear call, values can overlap the other calls;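 also: 0% = vehicle wells and 100% = reference inhibitor control wells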
Target sequence (P9WHJ3 whole entry, looked up): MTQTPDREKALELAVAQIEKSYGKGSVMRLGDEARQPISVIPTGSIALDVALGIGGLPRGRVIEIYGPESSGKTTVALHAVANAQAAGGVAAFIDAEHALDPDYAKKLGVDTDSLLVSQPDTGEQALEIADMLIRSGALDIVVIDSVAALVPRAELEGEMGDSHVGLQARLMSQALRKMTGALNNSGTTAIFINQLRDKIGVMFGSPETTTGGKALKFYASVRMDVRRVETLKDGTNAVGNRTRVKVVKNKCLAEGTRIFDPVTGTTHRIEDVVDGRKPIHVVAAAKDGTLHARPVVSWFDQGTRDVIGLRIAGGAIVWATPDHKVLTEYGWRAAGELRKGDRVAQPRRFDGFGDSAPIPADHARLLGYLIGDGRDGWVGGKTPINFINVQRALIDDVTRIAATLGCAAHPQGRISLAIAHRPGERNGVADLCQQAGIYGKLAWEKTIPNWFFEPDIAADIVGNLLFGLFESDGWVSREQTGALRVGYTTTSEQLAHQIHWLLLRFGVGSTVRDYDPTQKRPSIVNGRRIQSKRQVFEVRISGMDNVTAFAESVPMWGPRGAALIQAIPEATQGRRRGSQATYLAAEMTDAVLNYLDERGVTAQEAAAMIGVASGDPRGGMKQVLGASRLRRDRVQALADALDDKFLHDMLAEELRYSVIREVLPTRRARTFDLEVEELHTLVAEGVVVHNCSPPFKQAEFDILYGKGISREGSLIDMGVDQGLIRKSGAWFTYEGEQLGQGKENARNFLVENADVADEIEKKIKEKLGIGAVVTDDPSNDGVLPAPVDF
YopH PTP inh: inhibitors of Yersinia enterocolitica YopH tyrosine phosphatase; 140,000 compounds, 0.16% hits; fluorescence Ex485/Em525; AID 898; inhibition, %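 (about 10 µM by stock and volumes)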;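 active = inhibition of 50% or more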;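 also: controls were vehicle for no effect and minimum signal wells for full effect; inactives centre near -20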
Arbovirus inh: blocks arbovirus infection | AID 1251 | 200,000 compounds, 0.37% hits | arbovirus infection cell-based antiviral screen | inhibition, % at 10 µM;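 active = inhibition from about 30%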;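 also: bluetongue infection of BSR cells; cell survival read as ATP light after 72 h; 0% = infected wells without compound and 100% = uninfected wells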
Arbovirus inh repeat: also measured in Arbovirus inh; calls as there; inhibition, %; measured here: 10K subset replicate screen; many hits read low in the repeat;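 first of two repeat runs on a subset; 0% = infected and 100% = uninfected wells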
An asterisk follows results filed as active; ? = inconclusive; / = no result given. Not all compounds are listed; count on the stated rates, not on these rows.

SMILES	Mtb growth	Mtb bLac sens	RecA intein inh	YopH PTP inh	Arbovirus inh	others
CS(=O)(=O)c1ccc(NCCc2ccc(S(N)(=O)=O)cc2)c([N+](=O)[O-])c1	/	-4	-1.9	/	/
Cc1ccc(C)c(S(=O)(=O)Nc2ccc3oc(C)c(C(=O)O)c3c2)c1	/	5	1.3	/	/
COc1ccc(C(=O)N(CN2CCCC2=O)c2cc(C)on2)cc1OC	-2%	-19	-0.6	-41	12
O=C(NC1CCCCC1)C(c1ccncc1)N(C(=O)Cn1nnc(-c2cccs2)n1)C1CCCC1 (stereo unspecified)	2%	-7	/	3	0
COc1cc(C(=O)NCC(c2cccs2)N2CCOCC2)c([N+](=O)[O-])cc1OC (stereo unspecified)	/	0	-2.5	/	/
CC(C)(C)OC(=O)CC12CCCCC1NC(=O)O2 (stereo unspecified)	/	-7	0.1	/	/
O=S1(=O)NC(=NCCOCCO)c2ccccc21	-7%	1	0.2	/	6
COc1ccccc1CN1CCN(C(=O)c2cccc3ccccc23)CC1	/	-8	2.5	/	/
COc1ccc(OCC(=O)NNC(=O)c2ccc(-c3ccccc3)cc2)cc1	/	-1	-2.1	-17	-21
CC(C)c1ccc(OCC(=O)N2CCN(C(=O)c3ccco3)CC2)cc1	/	-4	-1.9	/	/
CC1(c2nnc(-c3ccc(Cl)cc3)o2)CC(c2ccc([N+](=O)[O-])cc2)=NO1 (stereo unspecified)	-14%	1	0.2	/	/
O=C(NCC1CCN(C(=O)c2ccc([N+](=O)[O-])cc2)CC1)c1ccc([N+](=O)[O-])cc1	/	-3	2.0	/	/
COc1ccc(NC(=O)C2OCCc3ccccc32)c(OC)c1 (stereo unspecified)	3%	65	3.5	-30	-4
O=C(/C=C/c1ccco1)NCc1ccccn1	-4%	3	-0.4	/	6
Cc1cnc(C(=O)OCC(=O)Nc2ccc(Cl)cc2Cl)cn1	2%	-3	-1.1	-10	2
Cc1cc(C(=O)N2CCCC(N3CCN(c4cccc(C(F)(F)F)c4)CC3)C2)n[nH]1 (stereo unspecified)	/	-7	3.3	/	/
CN1CCC(c2c[nH]c3ccccc23)C1 (stereo unspecified)	-1%	6	0.0	/	/
COc1ccc(CCNC(=O)COC(=O)c2cc(OC)c(OC)cc2OC)cc1OC	-8%	-2	2.6	/	20
O=C(CCC(=O)N1C[C@H]2C[C@@H](C1)c1cccc(=O)n1C2)NCc1ccccc1	/	-4	-4.6	/	/
Cc1ccc(-c2csc(NC(=O)CN3CCOCC3)n2)cc1C	/	-6	2.9	/	/
CC(=O)c1cnn(-c2c(Cl)cc(Cl)cc2Cl)c1C	-1%	-1	1.7	/	/
O=C(c1cc(-c2cccc(Cl)c2)on1)N1CCc2ccccc2C1	/	4	0.7	/	/
CC(=O)Nc1ccc(-c2csc(NNC(=O)c3ccc(C)cc3)n2)cc1	-6%	4	1.0	/	0
COc1ccc(Cn2c(O)c(/C=N/NC(=O)c3ccccc3O)c(=O)[nH]c2=O)cc1	0%	3	31*	-10	28
O=C(NCc1ccncc1)C(=O)NCC(c1ccco1)N1CCN(c2ccccc2F)CC1 (stereo unspecified)	-2%	-7	-1.7	-47	-2

Looked up one by one from the list above:
SMILES	Mtb growth	Mtb bLac sens	RecA intein inh	YopH PTP inh	Arbovirus inh	others
Cc1ccc(C)c(S(=O)(=O)Nc2ccc3oc(C)c(C(=O)O)c3c2)c1	/	5	1.3	/	/
COc1ccc(C(=O)N(CN2CCCC2=O)c2cc(C)on2)cc1OC	-2%	-19	-0.6	-41	12
COc1ccccc1CN1CCN(C(=O)c2cccc3ccccc23)CC1	/	-8	2.5	/	/

(further entries)
SMILES	Mtb growth	Mtb bLac sens	RecA intein inh	YopH PTP inh	Arbovirus inh	others
COC(=O)C1=C(C)NC(=S)N(C(C)=O)C1c1ccccc1 (stereo unspecified)	2%	-3	-0.4	38	0
Cc1ccc(C(CC(=O)N2CCCCC2)c2ccccc2)c(O)c1C (stereo unspecified)	/	-3	-2.2	/	/
CCOc1ccccc1CNS(=O)(=O)c1csc(C(N)=O)c1	/	0	0.7	/	/
N/C(=N\OC(=O)c1ccc2ccccc2c1)c1ccc(Br)cc1	2%	-3	1.9	-19	-13
CCc1nc(SCc2ccc(Cl)cc2)n[nH]1	7%	12	2.5	/	5
Cc1ccc(C(=O)/C=C/N(C)C)o1	-6%	-5	0.1	/	0
COc1ccc(OC)c(S(=O)(=O)NC2CC(=O)N(c3ccc(C)c(C)c3)C2)c1 (stereo unspecified)	/	-9	1.2	/	/
O=C(C1CCC1)N1CCc2cc(S(=O)(=O)NC3CCCC3)ccc21	1%	-9	-0.4	-33	12
Cc1ccc(NC2=NC3(CCCCC3)N=C(N)N2)c(C)c1	15%	-3	/	5	-10
O=C(NCc1nnc(SCC(=O)N2CCCc3ccccc32)o1)c1ccco1	-7%	2	-0.8	/	8
CC1CCCC(C)N1C(=O)c1cc(-c2cccs2)on1 (stereo unspecified)	6%	48	1.0	1	-5
COc1cccc(C(=O)N2CCN(c3ccc(N4CCOCC4)nn3)CC2)c1	/	-3	-5.1	/	/
COc1cc(C2C(C(=O)OC(C)C)=C(C)Nc3[nH]c(=O)[nH]c(=O)c32)ccc1O (stereo unspecified)	-13%	-1	-2.7	51*	7
Cc1nc(C)c(-c2ccccc2)c(=O)[nH]1	1%	-4	-2.0	-42	3
O=C(CN1C(=O)C2CC=CCC2C1=O)Nc1ccc(Br)cc1 (stereo unspecified)	/	-12	-0.5	/	/
CC1CCc2c(sc(NC(=O)C3CCCO3)c2C#N)C1 (stereo unspecified)	6%	27	-0.2	/	-4
Clc1nc(CN2CCOCC2)nc2sc3c(c12)CCC3	1%	-1	0.3	/	5
Cc1cc(NS(=O)(=O)c2ccc(NC(=S)NC(=O)c3ccncc3)cc2)no1	3%	3	2.4	/	/
Cc1ccccc1NC(=S)N/N=C/c1ccc(O)cc1O	-1%	-1	6.6	/	/
O=C(Nc1cc(Cl)ccc1O)C1CC(c2ccccc2O)=NO1 (stereo unspecified)	/	93	6.5	/	/
CCN(CCCn1c(SCC#N)nc2ccccc2c1=O)c1ccccc1	1%	-11	4.0	-46	-2
CCCCCn1c(CNC(C)=O)nc2ccccc21	-7%	?	-0.5	-28	4	Arbovirus inh repeat=1
C/C(N)=C(/C#N)C(=O)COC(=O)c1cc(-c2ccccc2)nc2ccc(Br)cc12	5%	-4	-0.9	/	-4
Cc1ccc(N2CC(C)Cn3c2nc2c3c(=O)[nH]c(=O)n2C)cc1C (stereo unspecified)	/	?	-1.0	/	/
COCCCNC(=O)Cn1cnc2sc(C)c(S(=O)(=O)N3CC(C)CC(C)C3)c2c1=O (stereo unspecified)	/	-4	0.1	/	/

For convenience, some entries already given.
SMILES	Mtb growth	Mtb bLac sens	RecA intein inh	YopH PTP inh	Arbovirus inh	others
O=C(/C=C/c1ccco1)NCc1ccccn1	-4%	3	-0.4	/	6
Cc1cnc(C(=O)OCC(=O)Nc2ccc(Cl)cc2Cl)cn1	2%	-3	-1.1	-10	2
Cc1cc(C(=O)N2CCCC(N3CCN(c4cccc(C(F)(F)F)c4)CC3)C2)n[nH]1 (stereo unspecified)	/	-7	3.3	/	/
CN1CCC(c2c[nH]c3ccccc23)C1 (stereo unspecified)	-1%	6	0.0	/	/

Next results:
SMILES	Mtb growth	Mtb bLac sens	RecA intein inh	YopH PTP inh	Arbovirus inh	others
Cc1cc(C)c(N2CCN(S(=O)(=O)N3CCCCCC3)CC2)c(C)c1	7%	7	8.3	-8	-11
CC1=CCC2C(=O)N(c3ccc4ccccc4n3)C(=O)C2C1 (stereo unspecified)	-11%	-4	-2.4	-3	2
CCC(C)NC(=O)c1cn(CC)c2ccc(S(=O)(=O)N3CCCCCC3)cc2c1=O (stereo unspecified)	/	8	1.1	/	/
Cc1ccc(OCc2cc(C(=O)N3CC4C[C@@H]5CC3C[C@H](C4)C5)no2)cc1C	/	-5	1.0	/	/
O=C(CN(C(=O)CNS(=O)(=O)c1ccc(F)cc1)c1ccccc1F)NCc1ccco1	/	8	0.2	/	/
CC1=C(C(=O)Nc2cccc(C(=O)NCc3ccc(F)cc3)c2)SCCO1	/	-1	-0.2	/	/
O=C(Cc1cccs1)NCC1CCCO1 (stereo unspecified)	-8%	-3	-2.1	-18	4
COc1ccc(Br)cc1/C=N/NC(=O)c1cccnc1	/	3	-1.2	/	/
CC/C(=N\NC(=O)c1ccccc1)c1c(O)n(C2CCCCC2)c(=O)[nH]c1=O	/	1	0.2	/	/
Cn1c(=O)[nH]c(=O)c2c1nc(Sc1ncccn1)n2CCCc1ccccc1	-10%	-2	-3.0	-59	1	Arbovirus inh repeat=1
CCCCC(O)(c1ccc(F)cc1)C(CN1CCOCC1)c1ccc(Cl)cc1 (stereo unspecified)	/	57	23	/	/
CC(C)N(C(=O)Cn1c(-c2cccnc2)ccc(C#N)c1=O)C(C)C	/	5	1.8	/	/
N#Cc1cnn(-c2nc3sc4c(c3c(=O)[nH]2)CCCC4)c1N	/	71	0.4	-45	-20
CCOC(=O)C1CCCCN1Cc1cccc(F)c1 (stereo unspecified)	-8%	2	-3.0	-18	3
O=C(/C=C/c1ccc2c(c1)OCCO2)c1ccccc1	14%	5	/	/	/
Nn1c(SCCOc2ccccc2)nnc1-c1cccnc1	5%	3	0.5	-5	1
COc1ccc(C(=O)NC(C)c2nnc(SCc3ccc(Cl)c(Cl)c3)n2C)cc1 (stereo unspecified)	4%	89	0.8	-39	9
O=C(O)c1ccc(-c2ccccn2)s1	8%	3	/	/	4
CC1(C)Cc2c(cnn2-c2ccccc2)C(NC(=O)CCN2CCCCO2)C1 (stereo unspecified)	/	-8	1.0	/	/
Cc1ccc(C)c2[nH]c(=O)c(CN(Cc3ccco3)S(=O)(=O)c3ccc4c(c3)OCCO4)cc12	0%	-15	3.9	-21	-19
COc1ccc(CCNC(=O)COc2cc(C)cc3oc(=O)cc(C)c23)cc1	/	6	3.0	/	/
CC1(c2ccccc2)NC(=O)N(CC(=O)NNC(=O)c2ccccc2)C1=O (stereo unspecified)	/	-5	-0.8	/	/
O=C(C1=NN[C@@H]2C(=O)N(c3cccc(F)c3)C(=O)[C@H]12)c1cnccn1	-4%	-2	2.9	/	/
O=C(Nc1ccccc1C(F)(F)F)c1cnccn1	/	0	-4.6	/	/
CC(C)CN1CCNC(=O)C1CC(=O)NCc1cnn(-c2cccc(F)c2)c1 (stereo unspecified)	3%	-10	1.9	/	2
Continued:
SMILES	Mtb growth	Mtb bLac sens	RecA intein inh	YopH PTP inh	Arbovirus inh	others
N=C1/C(=C/c2cccn2Cc2ccc(F)cc2)C(=O)N=C2SC=CN12	1%	3	-3.7	/	0
COc1ccc(C)cc1NC(=O)C1CCN(C(=O)C2CC(=O)N(c3ccc(C)cc3)C2)CC1 (stereo unspecified)	/	4	-0.1	/	/
COC(=O)C1=C(C(=O)OC)[C@@H]2Nc3ccccc3[C@@]23C[C@@H](C(=O)OC)N(C(=O)CC(C)C)C3=N1	-20%	-1	6.0	/	/
O=C(O)CNc1nc(-c2ccccc2)nc2c1oc1ccccc12	-1%	-1	0.0	/	/
CC1(C)CC(=O)c2sc(NS(=O)(=O)c3ccc([N+](=O)[O-])cc3)nc2C1	/	?	1.4	/	/
Cc1ccc(-c2ccc(=O)n(CC(=O)NCCN3CCCCC3C)n2)cc1 (stereo unspecified)	-11%	0	0.6	-20	-5
CCCN1CCc2c(sc(NC(=O)C3CCN(S(=O)(=O)c4cccs4)CC3)c2C(N)=O)C1	/	4	-34	/	/
CCOc1ccc(N/C(N)=N/c2nc(C)cc(C)n2)cc1	/	-4	-2.7	/	/
Cc1cc(NC(=O)/C=C\C(=O)O)c([N+](=O)[O-])cc1C	-14%	-5	5.4	/	/
O=C(CCN=C1NS(=O)(=O)c2ccccc21)N1CCc2ccccc2C1	3%	-7	-0.8	/	18
CCOC(=O)c1c(NC(=S)Nc2cccc(C)c2)sc2c1CC(C)(C)SC2	-7%	9	5.2	-4	6
Cc1cc(C)c2c(C)[nH]nc2n1	-11%	-8	-0.9	/	/
COc1cccc(CN2CC(C(=O)NCCN3CCOCC3)CCC2=O)c1 (stereo unspecified)	/	2	1.8	/	/
CN(C)c1ccc(N2C(=NC(=O)c3ccccc3)SC3CS(=O)(=O)CC32)cc1 (stereo unspecified)	/	6	1.0	/	/
Cc1ccc(NC(=O)c2ccc(CSc3nnc(-c4ccncc4)n3C)cc2)c(C)c1	-6%	55	-2.1	-17	3
O=C1CN(C(=O)c2ccc(Br)o2)C(c2ccccc2)c2cc(Br)ccc2N1 (stereo unspecified)	/	-7	18	1	-16	Arbovirus inh repeat=-15
CCOc1ccc(CC(=O)N/N=C/c2cccnc2)cc1	-1%	-4	-0.7	/	/
O=C(OCC(=O)N1CCc2ccccc21)c1cccnc1Cl	1%	-1	1.2	-54	11
COc1ccc(CCNc2cc(C)[nH]c(=O)c2)cc1OC	/	-6	-0.1	/	/
